Screens deposited in PubChem by Broad Institute.
Yeast UUG start – modulators of yeast start codon fidelity, primary screen, whole organism, S. cerevisiae, single point, plate reader | S. cerevisiae UUG-firefly luciferase reporter, luminescence/redox ratio | AID 602363, 2012 | 350,000 tested, 0.13% active | activity score, % at 18.7 µM;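 active = replicate mean at a twofold rise or more, about +100% in these data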;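 also: firefly luciferase made from a UUG start codon reports start codon fidelity; reporter light over untreated wells divided by growth signal over untreated wells; some hits fall short of that in this replicate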
HIV Env fusion – inhibitors of HIV-1 Env-driven cell-cell fusion, primary screen, HeLa-JRFL effector, CEM21 target cells, luciferase. 360,000 tested, 1.1% active. inhibition, % at 12.3 µM. AID 651610, 2012;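 active = mean replicate inhibition score of at least 50 and every replicate individually at or above 50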;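 also: 0% = plate neutral controls and 100% = maraviroc near 300 nM; one replicate is shown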
An asterisk follows results filed as active; [ ] = another dose, or the depositor's remark.

Yeast UUG start | HIV Env fusion | mol
7 | -14[16.7 µM] | C[C@H]1CCCCO[C@H](CN(C)C(=O)Cc2ccccc2)[C@@H](C)CN([C@@H](C)CO)C(=O)c2cc(NC(=O)CCCN(C)C)ccc2O1
3 | -4[16.7 µM] | N#C[C@@H]1[C@@H](c2ccc(-c3ccccc3F)cc2)[C@@H](CO)N1C(=O)C1CCC1
12 | 30[16.7 µM] | COc1ccc(NC(=O)Nc2ccc3c(c2)C(=O)N([C@H](C)CO)C[C@H](C)[C@H](CN(C)Cc2ccc4c(c2)OCO4)O3)cc1
3 | -14[16.7 µM] | COc1ccc(S(=O)(=O)N(C)C[C@@H]2Oc3ccc(NS(=O)(=O)c4ccc(F)cc4)cc3C(=O)N([C@@H](C)CO)C[C@@H]2C)cc1
5 | 6[16.7 µM] | C[C@@H]1CCCCO[C@@H](CN(C)C(=O)Nc2ccc3c(c2)OCO3)[C@H](C)CN([C@@H](C)CO)C(=O)c2cc(NS(C)(=O)=O)ccc2O1
8 | 4[16.7 µM] | C[C@@H]1CN([C@H](C)CO)S(=O)(=O)c2ccc(C#CCN(C)C)cc2O[C@@H]1CN(C)C(=O)c1ccccc1F
1 | -9[16.7 µM] | CC(=O)N(C)C[C@@H]1Oc2cc(C#CC3(O)CCCC3)ccc2S(=O)(=O)N([C@@H](C)CO)C[C@H]1C
19 | 21[16.7 µM] | C[C@H](CO)N1C[C@H](C)[C@@H](CN(C)C)Oc2cc(C#CCC3CCCC3)ccc2S1(=O)=O
11 | -40[16.7 µM] | Cc1ccc(S(=O)(=O)N(C)C[C@@H]2OCCCC[C@H](C)Oc3ccc(NC(=O)c4ccccc4)cc3C(=O)N([C@H](C)CO)C[C@@H]2C)cc1
26 | -13[16.7 µM] | C[C@H]1CCCCO[C@H](CN(C)C(=O)c2ccncc2)[C@@H](C)CN([C@@H](C)CO)C(=O)c2cc(NC(=O)Cc3ccccc3)ccc2O1
-16 | 22[16.7 µM] | O=C(C[C@H]1C=C[C@@H](NC(=O)c2cccc(F)c2)[C@H](CO)O1)NCc1ccc(Oc2ccccc2)cc1
-1 | -18[16.7 µM] | C[C@H](CO)N1C[C@H](C)[C@@H](CN(C)C(=O)Nc2cccc3ccccc23)Oc2c(NC(=O)Nc3ccc4c(c3)OCO4)cccc2C1=O
-12 | -2[16.7 µM] | COc1ccc(-c2ccc([C@@H]3[C@H](C#N)N(C(=O)c4cccnc4)[C@H]3CO)cc2)cc1
17 | -4[16.7 µM] | COc1ccc(NC(=O)N(C)C[C@H]2Oc3ncc(C#CC(C)C)cc3C(=O)N([C@@H](C)CO)C[C@H]2C)cc1
-16 | 10[16.7 µM] | C[C@@H]1CCCCO[C@H](CN(C)C(=O)C2CCCCC2)[C@@H](C)CN([C@@H](C)CO)C(=O)c2cc(NC(=O)Nc3ccc(C(F)(F)F)cc3)ccc2O1
39* | -2[16.7 µM] | O=C(O)C[C@H]1C[C@H]2c3cc(NC(=O)c4ccc5c(c4)OCO5)ccc3O[C@H]2[C@@H](CO)O1
-18 | 3[16.7 µM] | O=C(C[C@@H]1CC[C@H](NC(=O)C2CCC2)[C@H](CO)O1)NCc1ccccc1Cl
2 | -21[16.7 µM] | C[C@@H]1CCCCO[C@@H](CN(C)CC2CCCCC2)[C@@H](C)CN([C@H](C)CO)C(=O)c2cc(NC(=O)Nc3cccc4ccccc34)ccc2O1
3 | 19[16.7 µM] | C[C@H](CO)N1C[C@H](C)[C@H](CN(C)Cc2ccccc2F)Oc2cc(C3=CCCCC3)ccc2S1(=O)=O
-6 | 3[16.7 µM] | COc1cccc(CNC(=O)C[C@@H]2CC[C@@H](NS(=O)(=O)c3ccccc3OC)[C@@H](CO)O2)c1
-11 | -11[16.7 µM] | C[C@H](CO)N1C[C@H](C)[C@@H](CN(C)Cc2ccncc2)Oc2c(NC(=O)Nc3ccc4c(c3)OCO4)cccc2C1=O
-13 | -1[16.7 µM] | CO[C@@H]1CN(C)C(=O)c2cc(NC(=O)C3CCOCC3)ccc2OC[C@H](C)N(C)C[C@@H]1C
-6 | 4[16.7 µM] | CCC(=O)Nc1ccc2c(c1)OC[C@@H](C)N(C(=O)c1ccccc1F)C[C@@H](C)[C@H](OC)CN(C)C2=O
-3 | 11[16.7 µM] | C[C@H](CO)N1C[C@H](C)[C@H](CN(C)C(=O)Nc2ccc(F)cc2)OCCCC[C@H](C)Oc2ccc(NC(=O)C3CCCCC3)cc2C1=O
-15 | -16[16.7 µM] | C[C@@H]1CCCCO[C@@H](CN(C)C(=O)Nc2ccc3c(c2)OCO3)[C@H](C)CN([C@@H](C)CO)C(=O)c2cc(NS(=O)(=O)c3ccc(Cl)cc3)ccc2O1

The list goes on.
Yeast UUG start | HIV Env fusion | mol
1 | 26[16.7 µM] | C[C@@H]1CN([C@@H](C)CO)C(=O)c2cc(-c3cccc(F)c3)cnc2O[C@@H]1CN(C)S(C)(=O)=O
-10 | 20[16.7 µM] | COc1ccc(S(=O)(=O)N(C)C[C@H]2OCCCC[C@H](C)Oc3ccc(NC(=O)Nc4ccccc4)cc3C(=O)N([C@H](C)CO)C[C@@H]2C)cc1
3 | -97[16.7 µM] | C[C@@H]1CN([C@@H](C)CO)C(=O)c2cc(NC(=O)Nc3ccccc3)ccc2O[C@@H](C)CCCCO[C@@H]1CN(C)Cc1ccc2c(c1)OCO2
10 | 12[16.7 µM] | COCCNC(=O)C[C@@H]1C[C@H]2c3cc(NC(=O)c4cccnc4)ccc3O[C@H]2[C@@H](CO)O1
7 | 0[16.7 µM] | COc1ccc(NC(=O)Nc2ccc3c(c2)C(=O)N([C@@H](C)CO)C[C@H](C)[C@@H](CN(C)S(=O)(=O)c2ccccc2)OCCCC[C@@H](C)O3)cc1
0 | -9[16.7 µM] | COc1ccc(CN(C)C[C@@H]2Oc3c(NC(=O)Nc4ccccc4)cccc3C(=O)N([C@H](C)CO)C[C@@H]2C)cc1
-21 | 5[16.7 µM] | O=C(C[C@@H]1C[C@H]2c3cc(NC(=O)c4cccnc4)ccc3O[C@H]2[C@@H](CO)O1)NCc1cccnc1
-13 | -8[16.7 µM] | C[C@@H]1CN([C@@H](C)CO)C(=O)c2cccc(NC(=O)c3ccncc3)c2O[C@H]1CN(C)C(=O)NC1CCCCC1
12 | -6[16.7 µM] | C[C@H](CO)N1C[C@H](C)[C@@H](CN(C)Cc2cncnc2)Oc2ncc(C#CC3(O)CCCC3)cc2C1=O
8 | 21[16.7 µM] | C[C@H](CO)N1C[C@H](C)[C@H](CN(C)C(=O)Nc2ccc3c(c2)OCO3)Oc2ccc(NC(=O)C3CC3)cc2CC1=O
-2 | 7[16.7 µM] | C[C@H]1CN([C@@H](C)CO)C(=O)c2cc(C#Cc3ccccc3)cnc2O[C@@H]1CN(C)C(=O)CCN1CCCCC1
-16 | -10[16.7 µM] | C[C@@H]1CCCCO[C@H](CN(C)C(=O)Nc2cccc3ccccc23)[C@H](C)CN([C@@H](C)CO)C(=O)c2cc(NC(=O)Nc3ccc(C(F)(F)F)cc3)ccc2O1
0 | 5[16.7 µM] | C[C@@H]1CN([C@H](C)CO)C(=O)Cc2cc(NC(=O)NC3CCCCC3)ccc2O[C@H]1CN(C)Cc1ccc(C(F)(F)F)cc1
2 | -9[16.7 µM] | CS(=O)(=O)N1[C@H](CO)[C@@H](c2ccc(C#CC3CCCCC3)cc2)[C@@H]1C#N
-8 | -10[16.7 µM] | Cc1noc(C)c1NC(=O)Nc1ccc2c(c1)C(=O)N([C@@H](C)CO)C[C@H](C)[C@@H](CN(C)C(=O)Nc1ccc(C(F)(F)F)cc1)OCCCC[C@@H](C)O2
47 | -18[16.7 µM] | COc1ccc(NC(=O)Nc2ccc3c(c2)CC(=O)N([C@@H](C)CO)C[C@H](C)[C@H](CN(C)Cc2ccc4c(c2)OCO4)O3)cc1
-11 | 9[16.7 µM] | C[C@H](O)C#Cc1ccc2c(c1)O[C@@H](CN(C)Cc1ccccn1)[C@H](C)CN([C@@H](C)CO)S2(=O)=O
8 | 26[16.7 µM] | COc1ccccc1-c1cn(CC[C@H]2CC[C@@H](NC(=O)Cc3ccccn3)[C@@H](CO)O2)nn1
-1 | 63*[16.7 µM] | COc1ccc(S(=O)(=O)N[C@@H]2C=C[C@H](CC(=O)N3CCC(Cc4ccccc4)CC3)O[C@@H]2CO)cc1
15 | -6[16.7 µM] | C[C@H]1CN([C@@H](C)CO)C(=O)Cc2cc(NC(=O)C3CCCCC3)ccc2O[C@@H]1CN(C)S(=O)(=O)c1ccc(Cl)cc1
-12 | -88[16.7 µM] | Cc1ccc(S(=O)(=O)N(C)C[C@@H]2OCCCC[C@H](C)Oc3ccc(NC(=O)Cc4ccccc4)cc3C(=O)N([C@H](C)CO)C[C@@H]2C)cc1
-3 | 38[16.7 µM] | C[C@H](CO)N1C[C@H](C)[C@@H](CN(C)Cc2ccc(Oc3ccccc3)cc2)Oc2cc(-c3ccncc3)ccc2S1(=O)=O
3 | 8[16.7 µM] | Cc1cc(C(=O)Nc2cccc3c2O[C@@H](CN(C)Cc2ccccc2)[C@@H](C)CN([C@@H](C)CO)C3=O)n(C)n1
7 | -5[16.7 µM] | C[C@@H]1CN([C@@H](C)CO)C(=O)c2cc(N(C)C)ccc2O[C@@H](C)CCCCO[C@H]1CN(C)Cc1ccncc1
-1 | 12[16.7 µM] | C[C@H]1CN([C@@H](C)CO)C(=O)c2cccc(NC(=O)Nc3cccc4ccccc34)c2O[C@@H]1CN(C)C(=O)Nc1ccc2c(c1)OCO2

(cont.)
Yeast UUG start | HIV Env fusion | mol
21 | 17[16.7 µM] | C[C@@H]1CN([C@@H](C)CO)C(=O)Cc2cc(NC(=O)Cc3ccccc3)ccc2O[C@H]1CN(C)S(=O)(=O)c1ccccc1
-2 | 59*[16.7 µM] | C[C@@H]1CN([C@H](C)CO)S(=O)(=O)c2ccc(-c3ccncc3)cc2O[C@@H]1CN(C)Cc1ccc(Oc2ccccc2)cc1
2 | -41[16.7 µM] | COc1ccc(S(=O)(=O)Nc2ccc3c(c2)C(=O)N([C@H](C)CO)C[C@H](C)[C@@H](CN(C)C(=O)Cc2ccccc2)OCCCC[C@H](C)O3)cc1
-16 | 39[16.7 µM] | C[C@H](CO)N1C[C@H](C)[C@@H](CN(C)C(=O)Nc2ccc(C(F)(F)F)cc2)OCCCC[C@H](C)Oc2ccc(NC(=O)Nc3ccc4c(c3)OCO4)cc2C1=O
2 | -1[16.7 µM] | COc1ccc(C#Cc2cnc3c(c2)C(=O)N([C@H](C)CO)C[C@@H](C)[C@H](CN(C)C(=O)Nc2cccc(OC)c2)O3)cc1
-4 | -8[16.7 µM] | CC(C)CC#Cc1cnc2c(c1)C(=O)N([C@H](C)CO)C[C@H](C)[C@@H](CN(C)Cc1ccccc1F)O2
47 | 19[16.7 µM] | C[C@@H]1CN([C@@H](C)CO)C(=O)c2cc(NC(=O)Nc3ccc(F)cc3)ccc2O[C@@H](C)CCCCO[C@@H]1CN(C)CC1CCCCC1
7 | -5[16.7 µM] | Cc1noc(C)c1S(=O)(=O)Nc1ccc2c(c1)CC(=O)N([C@H](C)CO)C[C@H](C)[C@@H](CN(C)C(=O)Nc1ccc(F)cc1)O2
-1 | -1[16.7 µM] | COc1ccc(S(=O)(=O)Nc2ccc3c(c2)OC[C@H](C)NC[C@@H](C)[C@H](OC)CN(C)C3=O)cc1
-10 | -27[16.7 µM] | Cc1ccc(S(=O)(=O)Nc2ccc3c(c2)C(=O)N([C@@H](C)CO)C[C@H](C)[C@H](CN(C)S(=O)(=O)c2c(C)noc2C)OCCCC[C@@H](C)O3)cc1
-4 | 24[16.7 µM] | C[C@@H]1CN([C@H](C)CO)C(=O)Cc2cc(NC(=O)Nc3cccc4ccccc34)ccc2O[C@H]1CN(C)Cc1ccc(C(F)(F)F)cc1
-7 | -6[16.7 µM] | N#C[C@@H]1[C@@H](c2ccc(C#CC3CC3)cc2)[C@@H](CO)N1S(=O)(=O)Cc1ccccc1

9 consecutive compounds out of the list so far:
Yeast UUG start | HIV Env fusion | mol
-6 | 4[16.7 µM] | CCC(=O)Nc1ccc2c(c1)OC[C@@H](C)N(C(=O)c1ccccc1F)C[C@@H](C)[C@H](OC)CN(C)C2=O
-3 | 11[16.7 µM] | C[C@H](CO)N1C[C@H](C)[C@H](CN(C)C(=O)Nc2ccc(F)cc2)OCCCC[C@H](C)Oc2ccc(NC(=O)C3CCCCC3)cc2C1=O
-15 | -16[16.7 µM] | C[C@@H]1CCCCO[C@@H](CN(C)C(=O)Nc2ccc3c(c2)OCO3)[C@H](C)CN([C@@H](C)CO)C(=O)c2cc(NS(=O)(=O)c3ccc(Cl)cc3)ccc2O1
1 | 26[16.7 µM] | C[C@@H]1CN([C@@H](C)CO)C(=O)c2cc(-c3cccc(F)c3)cnc2O[C@@H]1CN(C)S(C)(=O)=O
-10 | 20[16.7 µM] | COc1ccc(S(=O)(=O)N(C)C[C@H]2OCCCC[C@H](C)Oc3ccc(NC(=O)Nc4ccccc4)cc3C(=O)N([C@H](C)CO)C[C@@H]2C)cc1
3 | -97[16.7 µM] | C[C@@H]1CN([C@@H](C)CO)C(=O)c2cc(NC(=O)Nc3ccccc3)ccc2O[C@@H](C)CCCCO[C@@H]1CN(C)Cc1ccc2c(c1)OCO2
10 | 12[16.7 µM] | COCCNC(=O)C[C@@H]1C[C@H]2c3cc(NC(=O)c4cccnc4)ccc3O[C@H]2[C@@H](CO)O1
7 | 0[16.7 µM] | COc1ccc(NC(=O)Nc2ccc3c(c2)C(=O)N([C@@H](C)CO)C[C@H](C)[C@@H](CN(C)S(=O)(=O)c2ccccc2)OCCCC[C@@H](C)O3)cc1
0 | -9[16.7 µM] | COc1ccc(CN(C)C[C@@H]2Oc3c(NC(=O)Nc4ccccc4)cccc3C(=O)N([C@H](C)CO)C[C@@H]2C)cc1

These rows are one share of the data (hit frequency here may not be typical).
